Compound activity as filed in PubChem BioAssay.
VACV Venus inh: inhibitors of vaccinia virus (Venus reporter); Vaccinia virus Venus reporter expression, fluorescence; 0.46% of 330,000 active; Potency, µM (titrated, usually from 36.5 µM), for the others: at the highest dose activity change, negative = inhibition, usual class: inhibitors; active means well fitted inhibition curve with a large enough effect; inconclusive means small, poorly fitted or top-dose-only effect; inactive means no such curve, though single readings can be large or run the other way; tested in A549 cells; also: nearly all actives have a fitted effect of over 30% in size; inactives centre near -10
Vaccinia mCherry: inhibitors of vaccinia virus infection (mCherry reporter signal). Vaccinia virus mCherry reporter infection, fluorescence; about a quarter of the inactives have no number. Potency, µM (series often up to 36.5 µM), for the others: at the highest dose activity change, negative = inhibition, hits mostly inhibitors. 0.63% of 310,000 active. AID 720579; active = well fitted inhibition curve with a large enough effect; inconclusive = small, poorly fitted or top-dose-only effect; inactive = no such curve, though single readings can be large or run the other way; tested in A549 cells; also: nearly all actives have a fitted effect of over 35% in size; inactives centre near -10
Numbers without * were called inactive; i = inactive; u = inconclusive; x = no result given; [ ] = another dose, or the depositor's remark. % is scaled to controls: 0 for no effect and ±100 for the full control effect; potency is read from the fitted curve at half-maximal effect. An unsorted share of the library, and some 0.88% of all compounds hit somewhere here.

SMILES | VACV Venus inh | Vaccinia mCherry
COc1ccc(/C=C/C(=O)N(C)Cc2cccs2)cc1S(=O)(=O)N1CCOCC1 | -11% | -1%
Cc1ccccc1NC(=O)/C=C/c1cccs1 | -11% | i
COc1ccc(N2CCN(C(=O)C(Cc3ccccc3)n3cccc3)CC2)cc1 (centres undefined) | -19% | u
COc1ccc(-c2ncc3ccccn23)cc1OC | -22% | x
COc1cc(C=O)ccc1OCCOCCOc1c(C)cc(Cl)cc1Cl | -1% | x
O=S(=O)(c1cccs1)N1CCC(CO)(Cc2cccc(F)c2)CC1 | -4% | -15%
O=C(Nc1nc(-c2cccc([N+](=O)[O-])c2)cs1)c1cccc([N+](=O)[O-])c1C(=O)O | -5% | i
COc1ccc(OC)c2sc(N3CCN(C(=O)c4ccc([N+](=O)[O-])s4)CC3)nc12 | -5% | i
CCc1c(C)sc2c1CCN(C(=O)Nc1cc(C)ccc1OC)C2c1ccc(F)cc1 (centres undefined) | 0% | -14%
CCC(=O)Nc1ccc(/C(C)=N\NC(=O)c2ccc(C)s2)cc1 | -7% | i
CC(=O)Nc1ccc(/C=N/NC(=O)c2cccs2)cc1 | -5% | -7%
CC(C)CN1C(=O)c2ccc(C(=O)Nc3nccs3)cc2C1=O | -15% | x
COCCCNCC(=O)Nc1ccc(OC(F)(F)F)cc1 | -14% | -8%
CC1CCN(S(=O)(=O)CCNC(=O)c2ccccc2)CC1 | -7% | -6%
CCN1CCCc2cc(CN(CCN3CCOCC3)C(=S)Nc3cccc(Cl)c3)ccc21 | -3% | u
COc1ccccc1N1CCN(C(=S)Nc2ccc(F)cc2)CC1 | -9% | -14%
COC(=O)c1ccc2[nH]c(C)c(CN3CCCC3)c(=O)c2c1 | -3% | -13%
Cc1cc(S(=O)(=O)Nc2cc3c(cc2C)n(C)c(=O)c(=O)n3C)ccc1F | -13% | -3%
CC(C)NC(=O)C1(C)CCN1C(=O)c1ccc(F)c(Cl)c1 (centres undefined) | 2% | 9%
Cc1ccc(C)c(N2CCN(C(=O)CN3C(=O)c4ccccc4C3=O)CC2)c1 | -6% | -3%
O=C(C1CC=CCC1)N1CCN(C(=O)C2CC=CCC2)CC1 (centres undefined) | -11% | -16%
Cc1ccc(NC(=S)N2CCC(NC(=O)c3ccccc3)CC2)cc1 | 1% | -17%
O=S(=O)(c1ccc(-n2cnnn2)cc1)N1CCN(c2ccccc2F)CC1 | -14% | -18%
Fc1ccc(-c2cnn3c(-c4ccncc4)ccnc23)cc1 | 0% | i
CCc1ccc(CNCc2cccs2)cc1 | -3% | -8%

Next part.
SMILES | VACV Venus inh | Vaccinia mCherry
CN(Cc1ccccc1)C(=O)c1cccc(N2C(=O)NC3CC2(C)Oc2ccccc23)c1 (centres undefined) | -11% | -13%
CCOc1ccccc1N1CCN(C(=S)NC(=O)C23CC4CC(CC(C4)C2)C3)CC1 | -21% | -4%
Cc1nc(NC(=O)c2cc3c(C)nn(-c4ccccc4)c3s2)sc1C(=O)Nc1ccccc1 | -6% | -5%
COc1ccccc1N1CCN(Cc2ccc(Cl)cc2Cl)CC1 | 2% | i
O=S(=O)(c1cccc2ccccc12)N1CCSC1 | -18% | x
CCCCOc1cc(NCc2ccccc2)c2ncn(C(C)C)c2c1 | u | -29%
CC(C)c1ccc2oc(-c3cccc(NC(=O)c4ccc5c(c4)OCCO5)c3)nc2c1 | -11% | i
Cn1c(=O)c(-c2cc(=O)[nH][nH]2)c(O)c2ccccc21 | 7% | -6%
Cn1c(=O)c2c(ncn2CC(=O)Nc2nc3ccc(F)cc3s2)n(C)c1=O | -13% | -21%
S=c1[nH]nc(-c2cc(-c3ccccc3)n[nH]2)n1/N=C/c1c2ccccc2cc2ccccc12 | -1% | u
COc1cccc(CNC(=O)c2ccc3c(c2)nc2n3CCOC2)c1OC | -19% | -12%
Cc1ccc(NC(=O)C2=CC(c3ccc(C)cc3)=NS(=O)(=O)N2C)cc1 | -29% | -5%
NNC(=O)c1nc[nH]c1C(=O)Nc1ccccn1 | -15% | -1%
COc1cccc(CC(=O)Nc2ccc3nc(Nc4cccc(C(F)(F)F)c4)cc(C)c3c2)c1 | -14% | -11%
COC(=O)Oc1nsnc1N1CCOCC1 | -21% | -22%
CCc1cccc(OCCCCNCCOC)c1 | -13% | -7%
CC(=O)c1cccc(S(=O)(=O)Nc2cccc(S(=O)(=O)NC3=NCCC3)c2)c1 | -3% | i
CC1(C)Cc2nc3sc4c(SCC(=O)NC(c5ccccc5)c5ccccc5)ncnc4c3cc2CO1 | -1% | -8%
CSc1nc(NCCN(C)C)c2sc3nc(-c4ccco4)c4c(c3c2n1)CCC4 | -6% | i
COc1cccc(CNC(=O)Cc2c(C(=O)O)c(C)cn2C)c1 | -5% | -12%
O=C(Nc1ccc(C2CC2(Cl)Cl)cc1)c1cccc([N+](=O)[O-])c1 (centres undefined) | u | -16%
COc1ccc(-c2nn(C)c3sc(C(=O)N4CCN(c5cccc(C)c5C)CC4)cc23)cc1OC | 0% | 5%
Cc1ccc(C2c3c(oc4ccccc4c3=O)C(=O)N2c2ccc(C)cn2)cc1 (centres undefined) | -7% | -5%
COc1cccc(NC(=O)c2ccc(-c3ccccc3[N+](=O)[O-])o2)c1 | -25% | -22%
C=CCn1c(SCc2ccccc2)nc(O)cc1=O | -1% | x

Some values from the results shown.
CC(=O)Nc1ccc(/C=N/NC(=O)c2cccs2)cc1 in VACV Venus inh shows -5%
CCN1CCCc2cc(CN(CCN3CCOCC3)C(=S)Nc3cccc(Cl)c3)ccc21 in VACV Venus inh shows -3%
O=C(Nc1nc(-c2cccc([N+](=O)[O-])c2)cs1)c1cccc([N+](=O)[O-])c1C(=O)O in VACV Venus inh shows -5%

Next section:
SMILES | VACV Venus inh | Vaccinia mCherry
O=C(CCS(=O)(=O)c1ccc(F)cc1)Nc1ccc(N2CCN(Cc3ccccc3)CC2)cc1 | -16% | -1%
O=C(Nc1ccc(F)c(Cl)c1)C1CCN(S(=O)(=O)c2ccc3c(c2)CCCN3C(=O)C2CCC2)CC1 | -19% | -18%
Cc1ccccc1C(=O)N1CCC(C(=O)NC(C)c2ccc(-n3ccnc3)cc2)CC1 (centres undefined) | -7% | i
COc1ccc(C(NC=O)c2cc(OC)c(OC)cc2Br)cc1OC (centres undefined) | 29% | -7%
CCOc1ccc(Cl)cc1-c1cc(C(=O)NCc2ccccc2OC)[nH]n1 | -14% | -19%
CN1CCN(C(=O)COc2ccc(Oc3ccccc3)cc2)CC1 | -9% | -9%
CCN1CCN(C(=O)c2ccc3c(c2)N(Cc2cc(C)ccc2C)C(=O)c2ccccc2S3(=O)=O)CC1 | -5% | -8%
COc1ccc(/C=N/NC(=O)Cn2cnc3ccccc3c2=O)cc1OC | -2% | -13%
CC1Cc2cc(S(=O)(=O)N3CCC(C(=O)NCc4ccco4)CC3)ccc2N1C(=O)C1CCC1 (centres undefined) | -23% | -19%
COc1ccc(OCC(=O)NNc2nc3ccccc3s2)cc1 | -11% | -7%
Cc1[nH]c2ccc(C(=O)NCCc3ccccc3Cl)cc2c1C | -2%[7.34 µM] | -2%[7.34 µM]
COc1cccc(C(C)(O)c2nc(-c3cnc4ccccc4c3)cs2)c1 (centres undefined) | -3% | 9%
O=C(c1cccs1)n1nc(NCc2ccccc2)nc1NCc1ccccc1 | -8% | -15%
O=C(CCSc1ccc(Cl)cc1)Nc1cccnc1 | -10% | -4%
CCOc1ccc(Oc2ccccc2NC(=O)CN2C(=O)NC3(CCCC3)C2=O)cc1 | -15% | -28%
Cc1ccc(NS(=O)(=O)c2ccc3c(c2)n(C)c(=O)n3C)c(C)c1 | -17% | -13%
C=Cc1ccc(Cn2c(C(=O)O)c(CNCc3ccc(F)cc3)c3ccc(C)cc32)cc1 | u | u
CCOC(=O)N1CCN(Cc2nc3cc(NC(C)=O)ccc3n2C(C)C)CC1 | -8%[7.34 µM] | -16%[7.34 µM]
CCOC(=O)CSc1nnc(NC(=O)c2cccc([N+](=O)[O-])c2)s1 | -12% | -13%
COC(=O)c1ccc(C(=O)NCC2Cc3cc(F)cc(-c4cncnc4)c3O2)cc1 (centres undefined) | 0% | i
Cc1ccc(S(=O)(=O)N(CCCc2c(C)nc(N)[nH]c2=O)Cc2ccc([N+](=O)[O-])cc2)cc1 | -15% | u
COc1ccccc1-c1cncc(NC(C)=O)n1 | -5% | i
CCOC(=O)c1c(-c2ccccc2)csc1NC(=O)C(C)NCCCN1CCOCC1 (centres undefined) | -24% | i
Cc1ccc(CNC(=O)c2ccc(CNS(=O)(=O)c3ccc4c(c3)C(C)(C)C(=O)N4C)cc2)o1 | 3% | 15%
CCN(CC)c1ccc(C2CC(=O)NC3=C2C(=O)CC(C)(C)C3)cc1 (centres undefined) | -17% | x

Next entries
SMILES | VACV Venus inh | Vaccinia mCherry
O=C(C1CCOCC1)N1CCCC(N2CCN(c3cccc(C(F)(F)F)c3)CC2)C1 (centres undefined) | 7% | -25%
COc1ccc(Cl)cc1NC(=O)NCC1CCN(C(=O)OC(C)(C)C)CC1 | -27% | -10%
O=C(NCc1cccs1)c1ccc2ccccc2n1 | -8% | -21%
CCCOc1ccc(C(=O)N/N=C/c2c[nH]c3ccc(Br)cc23)cc1 | -16% | -25%
Cn1cnnc1SCc1nnc(-c2ccccc2Br)o1 | -11% | i
CC(O)CNc1nc2c(c(=O)n(C)c(=O)n2C)n1CCc1ccccc1 (centres undefined) | -24% | -18%[1.46 µM]
Cc1nc2ccccn2c(=O)c1NC(=O)c1ccccc1Cl | -7% | -14%
CCCn1c(=O)[nH]c(=O)c2c1nc(-c1ccccc1)n2CCN1CCOCC1 | -3% | x
CCn1c(CC(=O)Nc2ccc(F)cc2)nnc1SCC(=O)NC1=NCCS1 | 3% | i
COc1ccc(C(C(=O)NC2CCCC2)N(CCC(C)C)C(=O)CCC(=O)Nc2cc(C)on2)cc1 (centres undefined) | -25% | -34%
COc1cc(Cl)c(C)cc1NC(=O)CSc1cc(=O)n(C)c2cc(Cl)ccc12 | -4% | -17%
C=CCSc1nnc(-c2ccccc2NC(=O)CC)c(=O)[nH]1 | -3% | -11%
Cc1ccccc1C(=O)Nc1nnc(SCc2cc(=O)c3c(C)ccc(C)c3[nH]2)s1 | u | -23%
Cc1ccc(NC(=O)c2cc([N+](=O)[O-])ccc2N2CCOCC2)cc1S(=O)(=O)N1CCOCC1 | -12% | -4%
O=C(O)C1C2C=CC(O2)C1C(=O)Nc1ccccc1C(F)(F)F (centres undefined) | 2% | x
Nc1ccc(-c2nc3nc(N)nc(N)c3nc2-c2ccc(N)cc2)cc1 | -3% | -26%
COc1ccccc1CNC(=O)CSc1nnc2c(n1)[nH]c1ccc(F)cc12 | 12% | -13%
Cc1nc(-c2ccccc2)sc1-c1ccc(SCC(=O)NCc2ccc(Cl)cc2)nn1 | u | u
O=C1CSC(c2ccccc2)N1c1nc(-c2ccc(Cl)cc2Cl)cs1 (centres undefined) | -5% | -5%
O=C(NC1CC1)C1CC(=O)N(c2ccccc2)C1 (centres undefined) | 12% | -2%
Cc1nc(C(F)(F)F)ccc1C(=O)N1CCC1(C)C(=O)NS(=O)(=O)c1c(C)noc1C (centres undefined) | 12% | 52%[activator]
N#Cc1c(N2CCCCC2)nc(N)c2c(N)nc(SCC(=O)O)cc12 | -3% | -9%
CN(c1ccccc1C(=O)Nc1ccc(S(=O)(=O)N2CCCC2)cc1)S(C)(=O)=O | 13% | 13%
CC(C)(C)OC(=O)N1CCC(c2c(C(=O)O)cnn2-c2ccc(F)cc2F)CC1 | -1% | 3%
Cc1cc2[nH]c(=O)c(=O)[nH]c2cc1S(=O)(=O)NCC(C)c1ccccc1 (centres undefined) | -7% | i

Single records, as listed above. Order of values: VACV Venus inh, Vaccinia mCherry
Cc1ccc(NC(=S)N2CCC(NC(=O)c3ccccc3)CC2)cc1 is listed as 1%, -17%
O=C(Nc1ccc(C2CC2(Cl)Cl)cc1)c1cccc([N+](=O)[O-])c1 (centres undefined) is listed as u, -16%
CCOc1ccc(Oc2ccccc2NC(=O)CN2C(=O)NC3(CCCC3)C2=O)cc1 is listed as -15%, -28%

The main list resumes; the four compounds before the break are reprinted first.
SMILES | VACV Venus inh | Vaccinia mCherry
N#Cc1c(N2CCCCC2)nc(N)c2c(N)nc(SCC(=O)O)cc12 | -3% | -9%
CN(c1ccccc1C(=O)Nc1ccc(S(=O)(=O)N2CCCC2)cc1)S(C)(=O)=O | 13% | 13%
CC(C)(C)OC(=O)N1CCC(c2c(C(=O)O)cnn2-c2ccc(F)cc2F)CC1 | -1% | 3%
Cc1cc2[nH]c(=O)c(=O)[nH]c2cc1S(=O)(=O)NCC(C)c1ccccc1 (centres undefined) | -7% | i
Cc1nn(-c2ccccc2)c(OC(=O)c2ccccc2)c1S(=O)(=O)c1ccccc1 | -3% | -15%
COc1ccc(/C=N/n2c(N)nc(-c3ccccc3)c2-c2ccccc2)cc1 | -25% | x
CCN(CC(=O)Nc1ccc(C#N)c(Cl)c1)CC(=O)NC1CCS(=O)(=O)C1 (centres undefined) | -11% | -8%
COc1cccc(-c2ccc3c(c2)O[C@@H](CN(C)Cc2cncnc2)[C@@H](C)CN([C@H](C)CO)S3(=O)=O)c1 | -25% | -5%
CCN1CCN(C(CNS(=O)(=O)c2ccc(F)cc2)c2cccnc2)CC1 (centres undefined) | 0% | i
Cc1noc(/C=C/NCc2cccnc2)c1S(=O)(=O)N(C)CC(=O)N1CCc2ccccc21 | -16% | 13%
COc1ccc(NC(=O)COC(=O)c2ccc3ccccc3n2)cc1 | -8% | i
COc1ccc(-c2csc3nc(-c4ccccc4OC)oc(=O)c23)cc1 | u | u
COc1ccccc1N1N=C(c2ccc([N+](=O)[O-])cc2)CC1c1ccccc1 (centres undefined) | 303%[activator] | -17%
Cc1nnc(SCC(=O)NCCc2ccccc2)s1 | -15% | u
COC(=O)CNC(=O)Cc1c(F)cccc1Cl | -3% | -18%
